Assay outcomes (PubChem)
VDR inhibitor = vitamin D3 receptor (human) inhibition; P11473; VDR-SRC2-3 peptide fluorescence polarization, 2 h; Potency, µM, for the others: max response, negative = inhibition, usual class: inhibitors; 400,000 compounds, 0.93% hits; AID 504847; active = well fitted inhibition curve with a large enough effect; inconclusive = small, poorly fitted or top-dose-only effect, or another doubt; inactive = no such curve, though single readings can be large or run the other way; note: series mostly up to about 120 µM
Target sequence (P11473 whole entry, looked up): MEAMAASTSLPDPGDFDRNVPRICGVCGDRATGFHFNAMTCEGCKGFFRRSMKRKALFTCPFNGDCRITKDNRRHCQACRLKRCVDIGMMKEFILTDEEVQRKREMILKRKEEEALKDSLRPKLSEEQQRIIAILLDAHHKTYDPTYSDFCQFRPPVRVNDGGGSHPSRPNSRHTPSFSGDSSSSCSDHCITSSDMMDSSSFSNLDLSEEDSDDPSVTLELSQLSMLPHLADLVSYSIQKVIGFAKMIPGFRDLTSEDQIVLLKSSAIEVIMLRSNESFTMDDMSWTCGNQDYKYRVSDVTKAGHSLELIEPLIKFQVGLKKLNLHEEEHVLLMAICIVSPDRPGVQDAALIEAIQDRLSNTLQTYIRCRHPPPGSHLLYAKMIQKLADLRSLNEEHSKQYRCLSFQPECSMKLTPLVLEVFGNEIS
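FP read-out; VDR + SRC2-3 coactivator peptide; 23 nl compound by pintool; 2 h RT incubation; reagents held at 4 deg C, protected from light.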
Starred values were filed as active, the others as inactive; & = joins results of further samples. % is set by controls: 0 for no effect and ±100 for the full control effect; potency is the fitted concentration of half-maximal effect. Only part of the results is shown. The share of hits here may be higher or lower than overall.

`Cc1ccccc1NC(=O)Nc1ccccn1` gave VDR inhibitor -18.2%.
Screening NNC(=O)c1cc2ccccc2cc1O returned VDR inhibitor -8.5%.
CCNc1nc2c(c(=O)n(C)c(=O)n2C)n1Cc1ccc(F)cc1 was read as VDR inhibitor 7.6%.
`COc1ccc(Cl)cc1NC(=S)N(CCCN1CCOCC1)Cc1cn(C)c2ccccc12` gave VDR inhibitor inconclusive.
Screening CCOc1ccc(OCC(=O)Nc2ccc(N3CCCCC3)cc2)cc1 returned VDR inhibitor -16.2%.
COc1ccc([N+](=O)[O-])cc1NC(=O)CCS(=O)(=O)c1ccc(Br)cc1 was read as VDR inhibitor 2.1%.
For O=C(OCCOc1ccc(Br)cc1)c1ccc(Cl)c(S(=O)(=O)N2CCOCC2)c1 the results were VDR inhibitor -7.2%.
`O=C(OCC(=O)N1CCN(C(=O)c2ccco2)CC1)c1ccccc1Cc1ccccc1` gave VDR inhibitor -5.4%.
CCCC1=Nc2cc(C(=O)N3CCC(C)CC3)ccc2Sc2ccc(C)cc21 was read as VDR inhibitor -5.5%.
N#Cc1cc(C#N)c(SCC(=O)N2CC(=O)Nc3ccccc32)nc1N was read as VDR inhibitor 6.4%.
CC(=O)Nc1ccc(SCC(=O)NC(=O)c2ccccc2Br)cc1 was read as VDR inhibitor -22.4%.
`COc1ccc(C(C#N)CCC2OCCO2)cc1OC` (configuration not stated) gave VDR inhibitor -8.0%.
Screening NC(=S)N=Nc1c(O)n(Cc2ccccc2)c2ccccc12 returned VDR inhibitor -1.2%.
Screening Cn1c(=O)c2c(nc(SCC(=O)Nc3ccc(F)cc3F)n2Cc2ccccc2)n(C)c1=O returned VDR inhibitor 3.2%.
`O=C(Nc1nc2ccc(F)cc2s1)c1cccc(S(=O)(=O)N2CCc3ccccc32)c1` gave VDR inhibitor -21.4%.
C[C@H](CO)N1C[C@H](C)[C@@H](CN(C)S(=O)(=O)c2cccs2)Oc2c(NC(=O)Cc3ccccc3)cccc2C1=O was read as VDR inhibitor 1.7%.
Screening Cc1nc(NC(=O)/C=C/c2ccc(Cl)cc2Cl)sc1C(=O)N(C)C returned VDR inhibitor inconclusive.
`N=c1c2c(-c3ccccc3)c(-c3ccccc3)n(Cc3ccccc3)c2ncn1CCCn1ccnc1` gave VDR inhibitor 5.5%.
For NS(=O)(=O)c1ccc(NC(=O)CN2CCCCC2)cc1 the results were VDR inhibitor 8.9%.
`O=C(CCSCc1cnn(-c2ccccc2)c1-n1cccc1)NCc1ccccc1Cl` gave VDR inhibitor 13.0%.

Next part; the last 5 above are carried over.
C[C@H](CO)N1C[C@H](C)[C@@H](CN(C)S(=O)(=O)c2cccs2)Oc2c(NC(=O)Cc3ccccc3)cccc2C1=O was read as VDR inhibitor 1.7%.
Screening Cc1nc(NC(=O)/C=C/c2ccc(Cl)cc2Cl)sc1C(=O)N(C)C returned VDR inhibitor inconclusive.
`N=c1c2c(-c3ccccc3)c(-c3ccccc3)n(Cc3ccccc3)c2ncn1CCCn1ccnc1` gave VDR inhibitor 5.5%.
For NS(=O)(=O)c1ccc(NC(=O)CN2CCCCC2)cc1 the results were VDR inhibitor 8.9%.
`O=C(CCSCc1cnn(-c2ccccc2)c1-n1cccc1)NCc1ccccc1Cl` gave VDR inhibitor 13.0%.
For COC(=O)[C@H](C)NC(=O)Nc1cc(OC)ccc1OC the results were VDR inhibitor -9.5%.
COCCn1c(Cc2ccccc2)nnc1SCC(=O)Nc1ccccc1 was read as VDR inhibitor -6.8%.
Screening Cc1ccc(-n2nnnc2Sc2nc([N+](=O)[O-])nn2C)cc1C returned VDR inhibitor -7.2%.
`CCOC(=O)CC(NC(=O)Cn1nnc(-c2ccccc2Cl)n1)c1ccc(OC)cc1` (configuration not stated) gave VDR inhibitor 6.4%&23.1%.
Screening COc1ccc(C2C(C(=O)c3ccco3)=C(O)C(=O)N2CCN2CCOCC2)cc1 (configuration not stated) returned VDR inhibitor 15.7%.
Screening COc1cccc(NC(=O)c2cc(S(=O)(=O)N3CCc4ccccc43)cn2C)c1 returned VDR inhibitor 10.0%.
For O=C(NCc1ccccc1Cl)c1ccc2nc(Cc3ccccc3)oc2c1 the results were VDR inhibitor -1.2%.
CC(C)=CC(=O)OCc1cc([N+](=O)[O-])cc2c1OCOC2 was read as VDR inhibitor 7.0%.
CCn1nc(C)c2c(-c3ccccc3)cc(=O)n(C(C)C(=O)NCc3ccc(C)cc3)c21 (configuration not stated) was read as VDR inhibitor 5.9%.
For CN(CC(=O)Nc1ccccc1Cl)C(=O)CSc1nc2ccccc2s1 the results were VDR inhibitor 0.8%.
`COC(=O)C1=C(CN2CCN(C)CC2)NC(=O)NC1c1cc(C)ccc1C` (configuration not stated) gave VDR inhibitor -10.8%.
`COCCn1c(SCC(=O)NCc2cccs2)nnc1-c1ccc(OC)cc1` gave VDR inhibitor -12.1%.
Screening CS(=O)(=O)c1ccc(Cl)c(NC(=O)c2cc(=O)[nH]c3ccc(S(=O)(=O)N4CCOCC4)cc23)c1 returned VDR inhibitor -4.0%.
Cc1ccc(Nc2c(-c3ccc(C)o3)nc3cnccn23)cc1 was read as VDR inhibitor 70.8µM*.
`CS(=O)(=O)N1CCC2(CC1)CN(Cc1cc(C(F)(F)F)cc(C(F)(F)F)c1)C2` gave VDR inhibitor 0.2%.
`O=C1COc2ccc(C(=O)COC(=O)c3ccccc3F)cc2N1` gave VDR inhibitor -22.0%.
For CN(CC(=O)Nc1ccc(S(N)(=O)=O)cc1)C1CCCCC1 the results were VDR inhibitor 5.9%.
`COc1ccc(Cc2noc(CN3CCN(Cc4cccc(Cl)c4)CC3)n2)cc1OC` gave VDR inhibitor 15.2%.
For CCOc1ccc(NC(=O)CCSc2ccc(C)cc2)cc1 the results were VDR inhibitor 6.0%.
`C=CC[C@@H](CC(=O)N[C@H](CO)Cc1ccccc1)C(=O)N[C@H](C)COC(=O)[C@@H](CC=C)Cc1ccc(F)cc1` gave VDR inhibitor -8.1%.
Screening COC(=O)C1CCN(C(=O)NC2CC(=O)N(c3ccc4c(c3)OCCO4)C2)CC1 (configuration not stated) returned VDR inhibitor -14.2%.
For CCOC(=O)c1sc(N2C(=O)c3oc4cc(C)c(C)cc4c(=O)c3C2c2cccc(O)c2)nc1C (configuration not stated) the results were VDR inhibitor 0.7%.
Screening CC(=O)c1ccc(OC(=O)c2cccs2)cc1 returned VDR inhibitor -12.8%.
Cc1cc(C)c2c(n1)nn1c(N3CCN(c4ccccc4)CC3)cc(C)nc21 was read as VDR inhibitor -5.4%.
Screening O=C(Nc1ccc(Cl)cc1Cl)NC1CCCC1 returned VDR inhibitor -9.4%.
For CC1(C)CC(=O)c2sc(NS(=O)(=O)c3ccc(Br)cc3)nc2C1 the results were VDR inhibitor 5.7%.
For Cc1cc2c(cc1S(=O)(=O)Nc1cccc(F)c1C)NC(=O)CO2 the results were VDR inhibitor -1.5%.
`O=C(CN1C(=O)NC2(CCCC2)C1=O)Nc1cc(Cl)ccc1N1CCOCC1` gave VDR inhibitor -12.0%.
Screening O=C1COc2ccc(C(=O)CCl)cc2N1 returned VDR inhibitor -14.9%.
Screening CC(C)(C(N)=O)N1CCN(c2ncc(C(F)(F)F)cc2Cl)CC1 returned VDR inhibitor -7.3%.
Screening N#Cc1nc(COc2ccccc2Cl)oc1N1CCCC1 returned VDR inhibitor -2.5%.
Screening O=C(c1ccccc1)N1CCc2cc(CNS(=O)(=O)c3ccccc3Cl)ccc21 returned VDR inhibitor 16.6%.
For Cc1cccc(NC(=O)c2ccc(S(=O)(=O)NCc3cccnc3)cc2)c1C the results were VDR inhibitor -7.6%.
`O=C(Nc1nc2cc3c(cc2s1)OCO3)c1ccco1` gave VDR inhibitor 12.3%.
Screening Nc1nnc(SCCOc2ccc(Br)cc2)s1 returned VDR inhibitor -7.4%.
`COc1ccccc1NC(=O)N(Cc1ccco1)Cc1cc2cccc(C)c2[nH]c1=O` gave VDR inhibitor inconclusive.
CCCCC(CCC(=O)Nc1cc([N+](=O)[O-])ccc1O)C(=O)O (configuration not stated) was read as VDR inhibitor 11.8%.
Cc1ccc(NC(=O)C2C(=O)N(CCO)C3(C)CC2c2ccccc2O3)cc1 (configuration not stated) was read as VDR inhibitor 1.6%.
CC(OC(=O)c1ccccc1)C(=O)NCCC1=CCCCC1 (configuration not stated) was read as VDR inhibitor 21.1%.
`CCN(CC)c1ccc(-c2c(C#N)c(N)nc(OC)c2C#N)cc1` gave VDR inhibitor -3.1%.
`CCOc1ccc(-c2nnc(-c3ccccc3)n2-c2ccccc2)cc1` gave VDR inhibitor -7.4%.
For c1ccc(-n2ncc3c(NCc4ccccn4)ncnc32)cc1 the results were VDR inhibitor -1.1%.
`Cc1cc(SCC(=O)N/N=C/c2ccc(O)cc2O)nc2ccccc12` gave VDR inhibitor 13.0%.
CCCN(CCC)C(=O)CSc1nc2c(sc(=S)n2-c2ccc(OCC)cc2)c(=O)[nH]1 was read as VDR inhibitor -9.8%.
COc1cc(NC(=O)c2ccc([N+](=O)[O-])cc2)c(OC)cc1NC(=O)CC(C)C was read as VDR inhibitor -9.3%.
`COc1ccc(C(=O)Nc2cccc(/C=C(/CCC(=O)O)c3nc4ccccc4s3)c2)cc1` gave VDR inhibitor 4.8%.
O=C(Oc1ccccc1)N(c1ccccc1)c1ccccc1 was read as VDR inhibitor 12.8%.
Screening CSc1nc(Oc2ccc(F)cc2F)cc(C(F)(F)F)n1 returned VDR inhibitor 13.7%.
C/C(=N\N=C(/N)SC1CC(=O)N(c2cccc(Cl)c2)C1=O)c1cccs1 (configuration not stated) was read as VDR inhibitor 19.9%.
Clc1cccc(OCCn2ccnc2)c1 was read as VDR inhibitor -9.8%.
`CCc1nc(N2CCCC2C(=O)O)c2oc3ccccc3c2n1` (configuration not stated) gave VDR inhibitor -14.2%.
For COc1ccccc1N1CCN(C2CC(=O)N(C)C2=O)CC1 (configuration not stated) the results were VDR inhibitor 11.4%.
`CC1(C)CC(=O)c2c(nc(SCC(=O)Nc3nsc(-c4ccccc4)n3)c(C#N)c2-c2ccccc2)C1` gave VDR inhibitor 1.0%.
Screening CC1CCc2cc(F)ccc2N1C(=O)CSc1nnc(-c2cccs2)n1C (configuration not stated) returned VDR inhibitor 9.6%.
CC(=O)Nc1ccc(OC(=O)c2cc3ccccc3oc2=O)cc1 was read as VDR inhibitor 17.6%.
COc1ccccc1OCC(=O)NCC1CCCN(Cc2cnn(C(C)C)c2)C1 (configuration not stated) was read as VDR inhibitor 7.4%.
Screening CCC(NC(=O)Cc1c(C)c2c(cc(C)c3c(C)c(C)oc32)oc1=O)C(=O)O (configuration not stated) returned VDR inhibitor 11.1%.
For Cc1ccc2nc(/C(C#N)=C\c3ccc(Oc4ccc(C(F)(F)F)cc4[N+](=O)[O-])cc3)[nH]c2c1 the results were VDR inhibitor -22.5%.
`CC1(C)Cc2cccc(OCC(=O)N3CCN(S(=O)(=O)c4ccc(F)cc4)CC3)c2O1` gave VDR inhibitor -8.4%.
COc1ccc([N+](=O)[O-])cc1NC(=O)CCc1ccccc1 was read as VDR inhibitor -19.2%.

Three neighbouring entries already listed, quoted:
For Cc1ccc2nc(/C(C#N)=C\c3ccc(Oc4ccc(C(F)(F)F)cc4[N+](=O)[O-])cc3)[nH]c2c1 the results were VDR inhibitor -22.5%.
`CC1(C)Cc2cccc(OCC(=O)N3CCN(S(=O)(=O)c4ccc(F)cc4)CC3)c2O1` gave VDR inhibitor -8.4%.
COc1ccc([N+](=O)[O-])cc1NC(=O)CCc1ccccc1 was read as VDR inhibitor -19.2%.

(further entries)
For O=C(Cn1nnc2ccccc21)OCC(=O)c1ccc(Cl)c(Cl)c1 the results were VDR inhibitor 9.4%.
For O=C(CSc1nnc(-c2cccnc2)n1Cc1ccco1)NCc1ccc2c(c1)OCO2 the results were VDR inhibitor 5.3%.
Screening CCn1ncc(Br)c1C(=O)Nc1ccc2c(c1)OCCO2 returned VDR inhibitor -3.6%.
For CCN1CCN(C(=O)c2oc(=O)c3ccccc3c2-c2ccc(C)cc2)CC1 the results were VDR inhibitor -15.6%.
O=C(O)c1cc(N/N=C2/CC(c3ccccc3)Oc3ccccc32)ccc1Cl (configuration not stated) was read as VDR inhibitor -18.4%.
Cc1cc(S(=O)(=O)N2CCOCC2)ccc1OCC(=O)N1CCC(C)CC1 was read as VDR inhibitor -5.5%.
CN1CCN(C(=O)c2ccc(NS(=O)(=O)c3cccc([N+](=O)[O-])c3)cc2)CC1 was read as VDR inhibitor 3.0%.
CCCc1cc(=O)[nH]c(SCC(=O)Nc2nonc2C)n1 was read as VDR inhibitor -10.0%.
Screening COc1cccc(-c2[nH]nc3c2C(c2ccc(C)o2)C(C#N)=C(N)O3)c1 (configuration not stated) returned VDR inhibitor -1.3%.
`CCN(CC(=O)NCc1cccs1)C(=O)/C=C/c1ccc(OC)c(OC)c1` gave VDR inhibitor -9.8%.
For O=C(Nc1cc(C(F)(F)F)ccc1-n1cnc2ccccc21)c1ccccc1 the results were VDR inhibitor -8.3%.
Screening CCN(CC(O)CON=C1c2ccccc2-c2ccccc21)S(=O)(=O)c1ccc(C)cc1 (configuration not stated) returned VDR inhibitor -6.8%.
Screening Cc1sc2ncnc(NC3CCN(Cc4ccccc4)CC3)c2c1C returned VDR inhibitor 0.4%.
`CNC(=S)N/N=C/c1ccc2c(c1)OCCO2` gave VDR inhibitor 4.9%.
`CN(C)CCn1c2ccccc2c2nc3ccc([N+](=O)[O-])cc3cc21` gave VDR inhibitor -10.1%.
Screening Cc1cc(C)c(C#N)c(OCC(=O)Nc2ccccc2)n1 returned VDR inhibitor -14.2%.
CCOC(=O)C1(Cc2ccccc2)CCN(Cc2cccn2-c2nccs2)CC1 was read as VDR inhibitor -13.0%.
COc1ccccc1N(CC(=O)Nc1c(C)cccc1C)S(C)(=O)=O was read as VDR inhibitor -4.0%.
Screening COCCCn1c(=N)c(S(=O)(=O)c2ccccc2)cc2c(=O)n3cc(C)ccc3nc21 returned VDR inhibitor -2.7%.
Cc1ccc(N=C2NC(=O)/C(=C/c3cn(C)c4ccccc34)S2)cc1C was read as VDR inhibitor -24.2%.
COc1ccccc1NC(=O)C1=C(C)Nc2nc(SCc3ccccc3)nn2C1c1ccncc1 (configuration not stated) was read as VDR inhibitor -13.3%.
For Cc1ccc(CN2CCC(CNc3ncnc4onc(-c5ccc(Cl)cc5)c34)CC2)cc1 the results were VDR inhibitor 12.0%.
